# LASV entry inh = qHTS for Inhibitors of binding or entry into cells for Lassa Virus; Lassa virus pseudotype entry inhibition, cell reporter; control for the full effect not named in the record; AID 540256, 2011; hit rate 1.2% among 300,000; Potency, µM (titrated, usually from 37.9 µM), inactives show at the highest dose activity change, negative = inhibition, most hits filed as inhibitors; active means well fitted inhibition curve with a large enough effect; inconclusive means small, poorly fitted or top-dose-only effect, or effect the other way; inactive means flat fitted curve, though single readings scatter; tested in HEK293 cells; note: % is set by controls: 0 for no effect and ±100 for the full control effect; nearly all actives have a fitted effect of over 50% in size; luciferase read-out
# RE007 growth inh = qHTS Assay for Inhibitors of the HIV-1 protein Vpr; Potency, µM (highest dose often 92.2 µM), for inactives: at the highest dose activity change, negative = less growth; hit rate 0.21% among 360,000; S. pombe RE007 Vpr strain, BacTiter-Glo ATP luminescence, 24 h; control for the full effect not named in the record; active = well fitted falling curve with a large enough effect; inconclusive = small, poorly fitted or top-dose-only effect; inactive = no such curve, though single readings can be large or run the other way;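 note: % is set by controls: 0 for no effect and ±100 for the full control effect; nearly all actives have a fitted effect of over 50% in size; the assay follows cell death caused by Vpr and the record does not say whether a fall means rescue or toxicity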
#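 Fission yeast strain RE007, carrying one chromosomally integrated HIV-1 vpr copy, was seeded at OD 0.01 in PMG+AL medium with 23 nL pinned compound. After 24 h at 30 °C and 99% humidity, viability was read by BacTiter-Glo luminescence.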
# Cruzain inh noDet = qHTS Assay for Promiscuous and Specific Inhibitors of Cruzain (without detergent). Potency, µM, without a hit: max response, negative = inhibition, most hits filed as inhibitors. Cruzipain (Trypanosoma cruzi), P25779. purified cruzain, Z-FR-AMC fluorescence, no detergent. AID 1476, 2009. hit rate 2.3% among 200,000; active = well fitted curve in the direction sought with a large enough effect; inconclusive = small, poorly fitted or top-dose-only effect, or another doubt; inactive = no such curve, though single readings can be large; an effect the other way counts as inactive or inconclusive;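 note: plate controls were enzyme without inhibitor for no effect and buffer without enzyme for full effect; nearly all actives have a fitted effect of over 40% in size; top concentration of the series not given in the record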
# Target sequence (P25779 123-467 limits assumed): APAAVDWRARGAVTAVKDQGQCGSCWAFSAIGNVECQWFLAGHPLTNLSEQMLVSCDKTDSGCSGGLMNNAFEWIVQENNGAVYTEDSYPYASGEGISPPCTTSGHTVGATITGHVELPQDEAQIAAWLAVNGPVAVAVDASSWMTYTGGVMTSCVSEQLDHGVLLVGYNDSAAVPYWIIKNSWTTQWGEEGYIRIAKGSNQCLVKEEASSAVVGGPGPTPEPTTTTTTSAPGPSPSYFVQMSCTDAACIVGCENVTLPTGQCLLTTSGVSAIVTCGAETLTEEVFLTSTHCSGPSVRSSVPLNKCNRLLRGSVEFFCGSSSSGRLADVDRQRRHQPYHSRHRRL
#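 Purified cruzain at 1.5 nM, pre-incubated 15 min with compound at room temperature in 100 mM sodium acetate pH 5.5, 5 mM DTT, 0.00005% Triton X-100. Reaction started with 2 uM Z-FR-AMC; AMC fluorescence increase over 60 s gives rate.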
# Cruzain inh Det = qHTS Assay for Promiscuous and Specific Inhibitors of Cruzain (with detergent) | purified cruzain, Z-FR-AMC fluorescence, 0.01% Triton | Potency, µM, for the others: max response, negative = inhibition, most hits filed as inhibitors | Cruzipain (Trypanosoma cruzi), P25779 | hit rate 0.43% among 200,000; active = well fitted curve in the direction sought with a large enough effect; inconclusive = small, poorly fitted or top-dose-only effect, or another doubt; inactive = no such curve, though single readings can be large; an effect the other way counts as inactive or inconclusive;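 note: plate controls were neutral wells for no effect and buffer without enzyme for full effect; nearly all actives have a fitted effect of over 40% in size; top concentration of the series not given in the record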
#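 Cysteine protease activity tested under reducing, mildly acidic conditions (100 mM sodium acetate pH 5.5, 5 mM DTT) plus 0.01% Triton X-100. Cruzain 1.5 nM; substrate Z-FR-AMC 2 uM; 15 min compound preincubation at room temperature.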
# MARV entry inh = qHTS for inhibitors of binding or entry into cells for Marburg Virus; Marburg virus pseudotyped entry inhibition, cell reporter; control for the full effect not named in the record; about a third of the inactives were read at about 46 µM; Potency, µM (series often up to 37.8 µM), for the others: top-dose activity change, negative = inhibition, usual class: inhibitors; hit rate 1.8% among 300,000; AID 540276, 2011; active = well fitted inhibition curve with a large enough effect; inconclusive = small, poorly fitted or top-dose-only effect, or effect the other way; inactive = flat fitted curve, though single readings scatter; tested in HEK293 cells; about a fifth of its hits are not listed in these tables; note: % is set by controls: 0 for no effect and ±100 for the full control effect; luciferase read-out
# SARS PLpro yeast = qHTS of Yeast-based Assay for SARS-CoV PLP | S. cerevisiae expressing SARS-CoV PLpro, growth rescue; control for the full effect not named in the record | Potency, µM (series often up to 32.9 µM), for the others: top-dose activity, positive = growth rescue | hit rate 0.19% among 330,000 | AID 485353, 2010; note: 0% is about no effect; nearly all actives have a fitted effect of over 55% in size; growth read by luminescence after 48 h
# StopGo reporter = High Throughput Screening for Foot and Mouth Disease Virus Antivirals. human cells with a luciferase reporter of 2A StopGo recoding; control for the full effect not named in the record. Potency, µM (series often up to 57.9 µM), inactives show top-dose signal change, negative = less light. hit rate 1.2% among 410,000. AID 1159524, 2015; active = well fitted falling curve with a large enough effect; inconclusive = small, poorly fitted or top-dose-only effect; inactive = no such curve, though single readings can be large or run the other way; tested in HEK293T cells; note: % is set by controls: 0 for no effect and ±100 for the full control effect; nearly all actives have a fitted effect of over 45% in size; luciferase light after 4 h
# NS1 function inh = qHTS Assay for Inhibitors of Influenza NS1 Protein Function; S. cerevisiae slowed by influenza A NS1, growth recovery by OD600; Potency, µM (series often up to 46.1 µM), without a hit: at the top dose activity, positive = more growth; hit rate 0.4% among 270,000; AID 2326, 2010; note: actives are rising curves; nearly all actives have a fitted effect of over 50% in size
#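 S. cerevisiae expressing influenza A NS1, grown in glucose, washed, then diluted 1:100 into pH 6.0 -URA galactose medium with 23 nl compound. Growth recovery read as OD600; NS1-free strain serves as control.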
# * marks the source's active call; other numbers are inactive results; ? = inconclusive; . = not tested or not shown; & = joins results of further samples; [ ] = dose if it differs, or a comment. Unless noted, calls come from the whole dose curve; as a rule, active means well fitted rising curve with a large enough effect; inconclusive means small, poorly fitted or top-dose-only effect; inactive means no such curve, though single readings can be large or run the other way. Potency is the fitted concentration of half-maximal effect.
SMILES,LASV entry inh,RE007 growth inh,Cruzain inh noDet,Cruzain inh Det,MARV entry inh,SARS PLpro yeast,StopGo reporter,NS1 function inh
N#Cc1c(NC(=O)c2cccc(S(=O)(=O)Nc3ccc(C(=O)O)cc3)c2)sc2c1CCCC2,16%[46.1 µM],2%,.,.,-1%[46.1 µM],8%,-3%,?
CC(CC(C)(C)N1CC1)=NNC(=O)Nc1cccc2ccccc12,?,-5%,.,.,?,.,-2%,.
O=C(CSc1nc2ccccc2c(=O)n1-c1ccc(F)cc1)Nc1ccc(N2CCOCC2)cc1,.,3%,7%,-2.2%,0%,10%,-21%,8%
COc1ccc(CCNC(=O)CN2C(=O)NC(c3ccccc3)(c3ccccc3)C2=O)cc1,?,-5%,.,.,-20%,0%,-21%,.
O=C(CCCl)Nc1ccc(S(=O)(=O)NCc2ccco2)cc1,-14%,19%,.,.,-11%[46.1 µM],-1%,4%,1%
CCC1C(=O)N=C(SCC(=O)Nc2ccc(Br)cn2)NC1=O (configuration not stated),.,12%,.,.,.,-1%,3%,0%
CCc1ccc(N2C(=O)CC(=O)NC2=O)cc1,.,5%,.,.,.,6%,-7%,9%
COc1cc(C2/C(=C(\O)c3ccc4c(c3)CC(C)O4)C(=O)C(=O)N2Cc2ccco2)ccc1O (configuration not stated),0%,-12%,-4%,-6.4%,19%,0%,-25%,-1%
CSc1ccc(/C=N\NC(=O)CC(=O)NC(C)C)cc1,.,-8%,.,.,.,0%,6%,7%
CCC(=O)c1ccc(OCC(=O)OCC(=O)N2CCc3ccccc32)cc1,11%,-9%,.,.,-3%,-3%,-4%,.
COn1c(SCC(=O)N(C)C)nc2ccccc2c1=O,9%,4%,-9%,1.9%,0%,16%,5%,-24%
Cc1cccc(CNCCc2c[nH]c3ccccc23)c1,?,-21%,.,.,10µM*,2%,1%,20%
O=S(=O)(c1ccc2nc(Nc3ccccc3)ccc2c1)N1CCCCC1,-16%[46.1 µM],11%,.,.,?,-6%,-7%,-15%
Cc1ccc(NC(=O)Cc2c(C(=O)O)n(C)c3ccccc23)cc1F,?,15%,.,.,5%[46.1 µM],1%,-8%,.
Cc1cc2ncn(-c3ncnc4sc5c(c34)CCCC5)c2cc1C,1%,-1%,3%,0.2%,?,-3%,-13%,-1%
CCOC(=O)c1c(N2C(=O)Nc3ccccc3N2O)sc2c1CCCCC2,-14%,2%,30%,-6.8%,?,?,9%,17%
CC(C(=O)Nc1ncn[nH]1)N1C(=O)c2ccccc2C1=O (configuration not stated),-7%,23%,-20%,-0.9%,17%,5%,-19%,7%
O=C(CCc1ccccc1)NNC(=O)Cc1ccc(Cl)cc1,-10%[46.1 µM],0%,.,.,-14%[46.1 µM],0%,1%,.
C=CCOc1cccc(/C=N/NC(=O)C(=O)NCc2ccco2)c1,?,-9%,?,4.7%,-28%,-8%,-4%,15%
Cc1ccc(C(=O)COc2ccccc2N2C(=O)c3ccccc3C2=O)cc1,3%,0%,18%,0.9%,23%[46.1 µM],-26%,32%[activator],4%
Cn1c(CCNC(=O)c2ccco2)nc2cc(NC(=O)c3ccccc3Cl)ccc21,12%,4%,.,.,0%,1%,20%,-3%
C/C(=N\OC(=O)NC(C)C)c1sc(-c2ccc(Cl)cc2)nc1C,?,?,?,-7.6%,?,-9%,-22%,-28%
COC(=O)c1ccc(OCCOc2ccccc2)cc1,-22%,8%,0%,-4.6%,?,-24%,19%,-4%
COc1ccc(N2CCN(C3CCCN(Cc4cccc(C(C)=O)c4)C3)CC2)cc1 (configuration not stated),.,1%,.,.,.,0%,-28%,-18%
CCOC(=O)CC(SP1(=S)OCC2(CC=CCC2)CO1)C(=O)OCC (configuration not stated),-12%,18%,.,.,1%,.,1%,.
O=C1NCC(COCc2ccccc2)O1 (configuration not stated),-3%,-7%,17%,2.4%,?,4%,-6%,0%
COc1ccc(CNC(=O)Cn2ccc3cc(S(=O)(=O)N4CCCC4)ccc32)c(OC)c1,-27%[46.1 µM],.,-9%,-4.3%,.,.,-16%,.
COCCNC(=O)c1ccc(Cn2c(SCC(=O)NCC3CCCO3)nc3ccc(Br)cc3c2=O)cc1 (configuration not stated),.,5%,.,.,.,2%,-2%,9%
Cc1ccc(NC(=O)COc2ccc3c(c2)OCO3)c(C)c1,-1%,-26%,.,.,13%,0%,9%,.
O=C(NCCN1CCOCC1)c1cccc(S(=O)(=O)N(Cc2ccccc2)c2ccccc2)c1,5%,-2%,.,.,-22%,.,-8%,.
O=C(/C=C/c1ccccc1[N+](=O)[O-])N1CCOCC1,-8%,-6%,.,.,?,0%,-4%,4%
O=C(O)Cc1ccc(NC(=O)c2ccc(NC(=O)C3CC3)cc2)cc1,-20%,33%,.,.,10%,3%,-19%,7%
CC(=O)c1ccc(N2CCN(C(=O)C3(S(=O)(=O)c4ccc(Cl)cc4)CC3)CC2)cc1,7%,-13%,?,-11%,0%&2%,-19%,?,-46%
Cc1ccc(S(=O)(=O)CC(O)COc2ccc(F)cc2Cl)c(C)c1 (configuration not stated),7%,18%,.,.,-3%[46.1 µM],-1%,-9%,-1%
CCOc1ccc(NC(=O)COC(=O)C2CCC(=O)N2)c([N+](=O)[O-])c1 (configuration not stated),20%,56%,.,.,5%,-3%,18%,.
Cn1c(=O)c2c(n(Cc3ccccc3)c1=O)NC(=O)C2CC(=O)NCc1cccc(Cl)c1 (configuration not stated),1%,-21%,-7%,-1.8%,6%,9%,-20%,14µM*
COc1cccc(C(=O)Nc2ccc(S(=O)(=O)N3CCN(C)CC3)cc2)c1,21%,-5%,.,.,14%[46.1 µM],1%,-3%,2%
CCOc1ccc2nc(SCc3ccc(F)cc3)sc2c1,-28%,-11%,1%,-4.6%,1%,-19%,20%,-19%
CC(C)CN1CCC(CN(C)Cc2nc(-c3cnccn3)no2)CC1,7%,-2%,.,.,5%[46.1 µM],1%,-7%,0%
O=C(Nc1ccccc1Cl)NC1(C(=O)N2CCCCC2)CCCCC1,2%,11%,2%,5.4%,-3%,-4%,-1%,-2%
CCOC(=O)c1[nH]c2ccccc2c1NC(=O)c1ccc(S(=O)(=O)N2CCCC2)cc1,-11%,1%,5%,-2.6%,-28%,12%,-28%,-10%
CCOC(=O)c1c(NS(=O)(=O)c2ccc(Br)cc2)sc2c1CCC2,6%,9%,.,.,-1%,.,?,.
CCc1ccccc1NC(=S)NCc1cccn1C,-1%,.,-6%,1.3%,?,30%,13%,29%
COCCn1c(C)cc(C(=O)CSc2n[nH]c(N)n2)c1C,6%,6%,-2%,-1.7%,4%,-1%,40%[activator],3%
CCOc1ccc(NC(=O)CN(c2ccc(Cl)cc2C)S(=O)(=O)c2ccccc2)cc1,?,.,-9%,-5.1%,?,.,-1%,.
Cc1ccc(-n2ncc(C(=O)NCCN3CCc4ccccc4C3)c2C2CCN(C(=O)OC(C)(C)C)CC2)c(C)c1,-15%[46.1 µM],.,-2%,-3.0%,.,.,-21%,.
Cc1nnc(NC(=O)CSc2ccc([N+](=O)[O-])cn2)s1,-12%[46.1 µM],-2%,.,.,25%[46.1 µM],0%,-3%,4%
COc1ccc(/C=N\NC(=O)c2ccccc2Br)cc1COc1c(F)c(F)cc(F)c1F,?,-9%,.,.,6.3µM*,-5%,-21%,-24%
COc1cccc(CCc2nnc(N)s2)c1,.,7%,.,.,.,-3%,18%,9%
CC(CCc1ccccc1)NC(=O)Cn1ncc2c3ccccc3n(Cc3ccc(F)cc3)c2c1=O (configuration not stated),?,.,-2%,-2.4%,3%[46.1 µM],.,-3%,.
CC(NC(=O)c1ccco1)C(=O)OCc1cccc(Cl)c1 (configuration not stated),2%,1%,7%,-2.0%,4%,-5%,13%,-87%
Cc1ccc(NC2=NC(c3ccc(F)cc3)n3c(nc(C)cc3=O)N2)c(C)c1 (configuration not stated),-18%[46.1 µM],5%,.,.,?,-1%,18%,-5%
Oc1ccc(-c2nc3ccccc3s2)c(O)c1,15%[46.1 µM],-16%,.,.,?,-7%,22%,-87%
COc1ccc(S(=O)(=O)N2CCOCC2)cc1N=Nc1sc(N)nc1-c1ccccc1,7%,-11%,2%,-6.5%,-46%,-1%,-23%,3%
CCc1ccc2oc(C(=O)NCC(c3ccc(OC)cc3)N3CCCCC3)c(C)c2c1 (configuration not stated),-10%[46.1 µM],5%,9%,0.6%,-4%&-4%[46.1 µM],1%,?,-4%
COC(=O)c1c(NC(=O)CSc2nnnn2-c2ccc3c(c2)OCO3)sc(C)c1C,1%,-3%,?,3.1%,-5%&-15%,-5%,-13%,-1%
O=C1/C(=C/c2cccc(Br)c2)SC(=S)N1/N=C/c1cc([N+](=O)[O-])ccc1O,.,10%,.,.,.,?,-25%,-8%
COc1ccc(NC(=O)C(C)N2C(=O)c3ccccc3C2=O)cc1S(=O)(=O)N1CCOCC1 (configuration not stated),-5%[46.1 µM],9%,.,.,26%[46.1 µM],0%,4%,.
O=C(c1c(F)cccc1F)N(Cc1ccccn1)C1CC1,7%,3%,5%,9.7%,9%,-2%,0%,-11%
CNC(=O)C1CCC(Cn2c(=O)c3sccc3n(Cc3cc(C)ccc3C)c2=O)CC1 (configuration not stated),-1%[46.1 µM],.,0%,0.1%,.,.,-9%,.
Cc1cc(N(C)C)cc(C)[n+]1[O-],2%,5%,4%,0.0%,-8%,1%,-17%,-7%
CC(=O)Nc1cc(NC(=O)CCCC(=O)O)ccc1Cl,9%,-2%,6%,3.2%,?,3%,2%,6%
Cc1ccc(Cn2c(C(=O)Nc3cccc(Cl)c3)cc3sccc32)cc1,-9%[46.1 µM],.,25µM*,-5.4%,?,.,0%,.
